Yeast UUG start – modulators of start codon recognition fidelity in yeast. S. cerevisiae UUG-firefly luciferase reporter, luminescence/redox ratio. activity score, % at 18.7 µM. 350,000 tested, 0.13% active;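 active = replicate mean at a twofold rise or more, about +100% in these data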;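 also: firefly luciferase made from a UUG start codon reports start codon fidelity; reporter light over untreated wells divided by growth signal over untreated wells; some hits fall short of that in this replicate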
HIV Env fusion – HIV envelope-mediated fusion inhibition | HeLa-JRFL Env/CEM21 cell fusion, luciferase | inhibition, % at 12.3 µM | 360,000 tested, 1.1% active;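 active = mean replicate inhibition score of at least 50 and every replicate individually at or above 50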;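 also: 0% = plate neutral controls and 100% = maraviroc near 300 nM; one replicate is shown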
CSC inhib – blocks cancer stem cells; cancer stem cell-like cells viability, luminescence; inhibition, % at 7.5 µM; AID 2717; 300,000 tested, 1.1% active;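 active = mean at 75% or more and at least half the replicates too; tested in HMLE shEcad cells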;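 also: 0% = median of negative and 100% = median of positive control wells; the first replicate is given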
PABP polyA inh – blocks human PABP binding to poly(A) RNA; fluorescence polarization; inhibition, % at 35 µM; 290,000 tested, 1% active; AID 2014;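 active = 50% or more with normal probe brightness, or confirmed in later tests; about a fifth of its hits are not listed in these tables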;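 also: calls also rest on retests at 20 µM and on dose response follow-up; controls were probe without protein and protein plus probe with vehicle; some compounds called inactive have numbers as strong as hits; many hits fall short of the cut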
Target sequence (P11940 whole entry, looked up): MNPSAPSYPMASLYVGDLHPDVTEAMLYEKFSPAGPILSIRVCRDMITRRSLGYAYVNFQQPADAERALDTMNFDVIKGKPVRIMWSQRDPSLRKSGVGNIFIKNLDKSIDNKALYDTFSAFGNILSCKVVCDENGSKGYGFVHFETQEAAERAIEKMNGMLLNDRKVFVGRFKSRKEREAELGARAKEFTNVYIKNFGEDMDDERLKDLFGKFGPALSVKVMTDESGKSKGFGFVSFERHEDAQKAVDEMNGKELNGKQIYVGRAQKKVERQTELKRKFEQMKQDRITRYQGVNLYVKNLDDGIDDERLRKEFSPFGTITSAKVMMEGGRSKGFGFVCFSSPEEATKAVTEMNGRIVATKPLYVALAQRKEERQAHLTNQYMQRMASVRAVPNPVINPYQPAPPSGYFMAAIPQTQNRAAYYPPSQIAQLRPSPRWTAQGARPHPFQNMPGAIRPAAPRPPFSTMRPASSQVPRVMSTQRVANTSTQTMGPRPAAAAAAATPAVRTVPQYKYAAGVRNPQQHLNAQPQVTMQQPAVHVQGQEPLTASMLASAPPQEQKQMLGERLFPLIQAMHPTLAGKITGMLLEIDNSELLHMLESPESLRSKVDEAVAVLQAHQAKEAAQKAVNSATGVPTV
MT1-MMP act inh – MT1-MMP (human) activation inhibition | P50281 | HT1080 RFP-PRO-GFP cells, GFP/RFP ratio fluorescence, overnight; percent of plate control window, DMSO zero | GFP/RFP ratio change, % at 20 µM | 360,000 tested, 0.061% active | AID 651647;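 active = GFP/RFP ratio change of at least 30% with cell ATP level not reduced by more than half and red fluorescence within 50% of control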; also: strong numbers were not always called active
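Assay system: HT1080 cells carrying an RFP-PRO-GFP reporter | Dosing: Single dose of 20 µM compound, 1% DMSO final | Incubation: Cells overnight before dosing, compound overnight, 37 °C, 5% CO2 | Evaluation: GFP/RFP fluorescence ratio | Control set: DMSO and RFP-L50D-GFP cell wells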
Rce1 inh – blocks yeast Ras-converting enzyme; yeast membranes, quenched prenylated peptide cleavage fluorescence; calls only; 290,000 tested, 0.27% active; AID 2563;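 active = fall in fluorescence gain of 50% or more versus controls, with final raw signal at or below 3038400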;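 also: plate controls were neutral control wells for no effect and wells lacking membranes for full effect; tested at 10 µM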
Target sequence (Q03530 whole entry, looked up): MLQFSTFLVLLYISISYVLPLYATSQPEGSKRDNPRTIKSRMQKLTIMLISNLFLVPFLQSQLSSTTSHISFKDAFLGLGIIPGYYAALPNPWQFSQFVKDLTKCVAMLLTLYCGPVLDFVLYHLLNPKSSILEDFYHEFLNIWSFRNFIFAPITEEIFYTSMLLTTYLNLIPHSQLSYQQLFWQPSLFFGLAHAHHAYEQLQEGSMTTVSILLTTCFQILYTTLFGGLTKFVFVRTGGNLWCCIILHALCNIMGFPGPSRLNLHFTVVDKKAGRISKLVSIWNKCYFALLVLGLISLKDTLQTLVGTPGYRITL
eIF4H inh – inhibitors of RNA binding by human eIF4H; eIF4H fluorescence polarization binding assay; inhibition, % at 35 µM; 290,000 tested, 0.94% active;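 active = 50% or more with normal probe brightness, or confirmed in later tests; about a fifth of its hits are not listed in these tables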;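 also: calls also rest on retests at 20 µM and on dose response follow-up; 0% = protein and probe with vehicle and 100% = probe without protein; strong numbers were not always called active; many hits fall short of the cut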
eIF4H inh retest – also measured in eIF4H inh; calls as there; inhibition, %; compound at 20 µM; confirmation average;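 mean of two retest wells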
PABP polyA inh retest – recorded beside PABP polyA inh, whose call it bears; inhibition, %; compound at 20 µM; confirmation repeats;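 mean of two retest wells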
MT1-MMP act inh RFP – further read-out of MT1-MMP act inh, marked with its call; RFP signal change, %; measured here: RFP expression control read;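 0 = vehicle wells; hits needed this value within 50% of zero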
The depositor's hits bear a star; & = joins results of further samples.

How did S=C(NCc1ccccc1)NCc1ccco1 do in these assays?
Yeast UUG start: -21; HIV Env fusion: -50; CSC inhib: -3; PABP polyA inh: -6; MT1-MMP act inh: -12; Rce1 inh: inactive; eIF4H inh: -7; MT1-MMP act inh RFP: 0

How did COc1ccccc1P(=O)(Cc1ccccc1[N+](=O)[O-])c1ccccc1 (configuration not stated) do in these assays?
HIV Env fusion: 5; CSC inhib: -9; PABP polyA inh: 5; MT1-MMP act inh: 0; Rce1 inh: inactive; eIF4H inh: 1; MT1-MMP act inh RFP: -2

How did C[C@@H]1CN([C@@H](C)CO)C(=O)CCCn2nncc2CO[C@@H]1CN(C)S(C)(=O)=O do in these assays?
Yeast UUG start: -9&-2; HIV Env fusion: -14; MT1-MMP act inh: 6; MT1-MMP act inh RFP: 5

How did COCCCNC(=O)c1cc(-c2cccnc2)nc2ccccc12 do in these assays?
Yeast UUG start: -2; HIV Env fusion: -4; CSC inhib: -13; PABP polyA inh: -2; MT1-MMP act inh: 3; Rce1 inh: inactive; eIF4H inh: 9; MT1-MMP act inh RFP: 4

What do the screens show for `CSc1ccc(/C=N/n2c(C3CCCCC3)n[nH]c2=S)cc1`?
Yeast UUG start: -17; HIV Env fusion: 22; CSC inhib: -1; PABP polyA inh: -3; MT1-MMP act inh: 1; Rce1 inh: inactive; eIF4H inh: -3; MT1-MMP act inh RFP: -1

Results for COc1cccc(C2c3c(-c4cc(Cl)c(C)cc4O)n[nH]c3C(=O)N2Cc2cccnc2)c1 (configuration not stated) ?
Yeast UUG start: -14; CSC inhib: 7; PABP polyA inh: -6; MT1-MMP act inh: 0; Rce1 inh: inactive; eIF4H inh: -3; MT1-MMP act inh RFP: -7

How did CCCCn1c(N)c(N(CC(C)C)C(=O)c2cc3c(s2)CCC3)c(=O)[nH]c1=O do in these assays?
Yeast UUG start: -6; CSC inhib: 10; MT1-MMP act inh: -1; Rce1 inh: inactive; MT1-MMP act inh RFP: 2

Results for COc1cccc(/C=N/NC(=O)c2cnccn2)c1O ?
Yeast UUG start: -24; HIV Env fusion: -7; CSC inhib: -3; PABP polyA inh: 1; MT1-MMP act inh: 2; Rce1 inh: inactive; eIF4H inh: 4; MT1-MMP act inh RFP: 2

How did Cc1cc(NC(=O)CCl)n(-c2nc3ccccc3s2)n1 do in these assays?
HIV Env fusion: -13; CSC inhib: -4; PABP polyA inh: -6; MT1-MMP act inh: -5; Rce1 inh: inactive; eIF4H inh: -2; MT1-MMP act inh RFP: -2

Results for Cc1nc(Nc2ccccc2)sc1C(=O)c1ccccc1 ?
Yeast UUG start: -8; HIV Env fusion: -10; PABP polyA inh: 8; MT1-MMP act inh: -5; Rce1 inh: inactive; eIF4H inh: 4; MT1-MMP act inh RFP: -5

How did Cc1ccccc1N(CC(=O)Nc1ccc(S(=O)(=O)N2CCOCC2)cc1)S(C)(=O)=O do in these assays?
HIV Env fusion: -22; CSC inhib: -13; PABP polyA inh: 1; MT1-MMP act inh: 2; Rce1 inh: inactive; eIF4H inh: -7; MT1-MMP act inh RFP: 0

What do the screens show for `CC(=O)Nc1ccc(S(=O)(=O)N(C)CC(=O)N/N=C/c2cccc(O)c2)cc1`?
HIV Env fusion: -8; CSC inhib: 0; PABP polyA inh: -4; MT1-MMP act inh: 7; Rce1 inh: inactive; eIF4H inh: -1; MT1-MMP act inh RFP: 6

Results for CCC(CC)c1nnc(NC(=O)Cc2ccccc2[N+](=O)[O-])s1 ?
HIV Env fusion: -9; CSC inhib: -13; PABP polyA inh: 11; MT1-MMP act inh: -1; Rce1 inh: inactive; eIF4H inh: -12; MT1-MMP act inh RFP: 0

How did O=C1NC[C@@H](c2ccccc2)OC(=O)[C@H](Cc2ccc(F)cc2)C/C=C\C[C@@H]1CC(=O)N(CCO)Cc1ccccc1 do in these assays?
Yeast UUG start: -6; HIV Env fusion: -14; CSC inhib: 6; MT1-MMP act inh: 6; MT1-MMP act inh RFP: -7

Results for CC1(C)Cc2c(sc(NC(=O)Cc3ccccc3)c2C#N)CO1 ?
HIV Env fusion: 16; CSC inhib: -1; PABP polyA inh: 8; MT1-MMP act inh: 0; Rce1 inh: inactive; eIF4H inh: 3; MT1-MMP act inh RFP: 0

What do the screens show for `COc1ccc(CCNC(=O)COC(=O)c2ccc(Br)o2)cc1OC`?
Yeast UUG start: -10; HIV Env fusion: -10; CSC inhib: -4; PABP polyA inh: -11; MT1-MMP act inh: 5; Rce1 inh: inactive; eIF4H inh: -3; MT1-MMP act inh RFP: 5

What do the screens show for `COc1c(O)ccc(C2NC(=O)NC(C)=C2C(=O)Nc2ccccc2C)c1[N+](=O)[O-]` (configuration not stated)?
HIV Env fusion: -27; CSC inhib: 2; PABP polyA inh: -12; MT1-MMP act inh: -2; Rce1 inh: inactive; eIF4H inh: 38; MT1-MMP act inh RFP: 4

Results for CCCCn1c(N)c(N(Cc2ccccc2OC)C(=O)C(C)C)c(=O)[nH]c1=O ?
Yeast UUG start: -3; HIV Env fusion: -3; CSC inhib: 0; PABP polyA inh: 35; MT1-MMP act inh: -1; Rce1 inh: inactive; eIF4H inh: 2; MT1-MMP act inh RFP: 2

What do the screens show for `Cn1nc([N+](=O)[O-])nc1Sc1cccc2cccnc12`?
HIV Env fusion: -5; CSC inhib: -7; PABP polyA inh: 8; MT1-MMP act inh: 2; Rce1 inh: inactive; eIF4H inh: -1; MT1-MMP act inh RFP: -8

How did O=C(NCCc1ccccn1)c1ccc2nc(Cc3ccccc3F)oc2c1 do in these assays?
Yeast UUG start: -8; CSC inhib: 9; PABP polyA inh: -5; MT1-MMP act inh: 3; Rce1 inh: inactive; eIF4H inh: -9; MT1-MMP act inh RFP: 9

Grouped by structure, the compounds so far with an aryl thioether with sulfur outside any ring.
What do the screens show for `CSc1ccc(/C=N/n2c(C3CCCCC3)n[nH]c2=S)cc1`?
Yeast UUG start: -17; HIV Env fusion: 22; CSC inhib: -1; PABP polyA inh: -3; MT1-MMP act inh: 1; Rce1 inh: inactive; eIF4H inh: -3; MT1-MMP act inh RFP: -1

What do the screens show for `Cn1nc([N+](=O)[O-])nc1Sc1cccc2cccnc12`?
HIV Env fusion: -5; CSC inhib: -7; PABP polyA inh: 8; MT1-MMP act inh: 2; Rce1 inh: inactive; eIF4H inh: -1; MT1-MMP act inh RFP: -8

The main list resumes with the 2 entries that preceded the break.
What do the screens show for `Cn1nc([N+](=O)[O-])nc1Sc1cccc2cccnc12`?
HIV Env fusion: -5; CSC inhib: -7; PABP polyA inh: 8; MT1-MMP act inh: 2; Rce1 inh: inactive; eIF4H inh: -1; MT1-MMP act inh RFP: -8

How did O=C(NCCc1ccccn1)c1ccc2nc(Cc3ccccc3F)oc2c1 do in these assays?
Yeast UUG start: -8; CSC inhib: 9; PABP polyA inh: -5; MT1-MMP act inh: 3; Rce1 inh: inactive; eIF4H inh: -9; MT1-MMP act inh RFP: 9

How did Cc1ccn2cc(C(=O)Nc3cccc(C(=O)NC4CC4)c3)nc2c1 do in these assays?
Yeast UUG start: -25; HIV Env fusion: -48; MT1-MMP act inh: 4; MT1-MMP act inh RFP: -7

What do the screens show for `CC1Sc2ccc(S(=O)(=O)N3CCC(C(=O)N(C)Cc4ccco4)CC3)cc2NC1=O` (configuration not stated)?
Yeast UUG start: 3; HIV Env fusion: 9; CSC inhib: 1; PABP polyA inh: -8; MT1-MMP act inh: -9; Rce1 inh: inactive; eIF4H inh: 5; MT1-MMP act inh RFP: -15

Results for CCOP(=O)(OCC)c1nc(-c2ccc(C)cc2)oc1N1CCOCC1 ?
Yeast UUG start: 5; HIV Env fusion: -26; CSC inhib: -16; MT1-MMP act inh: 1; Rce1 inh: inactive; MT1-MMP act inh RFP: 3

What do the screens show for `Cc1cc(=O)oc2cc(OCC(=O)Nc3ccc(N4CCC(C)CC4)cc3)ccc12`?
Yeast UUG start: -12; HIV Env fusion: 5; CSC inhib: 12; PABP polyA inh: 1; MT1-MMP act inh: 5; Rce1 inh: inactive; eIF4H inh: 70; eIF4H inh retest: -1; PABP polyA inh retest: -3; MT1-MMP act inh RFP: 2

What do the screens show for `Cc1nnsc1-c1c(C(=O)N2CCOCC2)c(C)nn1-c1ccc(Cl)cc1`?
HIV Env fusion: 18; CSC inhib: 20; PABP polyA inh: -6; MT1-MMP act inh: -3; Rce1 inh: inactive; eIF4H inh: -7; MT1-MMP act inh RFP: 3

What do the screens show for `O=C(CSc1nnc(-c2ccccc2Br)o1)N1CCN(C(=O)c2ccco2)CC1`?
Yeast UUG start: -20; CSC inhib: 6; PABP polyA inh: 8; MT1-MMP act inh: 0; eIF4H inh: 12; MT1-MMP act inh RFP: -4

How did COc1ccc(C(=O)Nc2cc(C(F)(F)F)ccc2-n2cncn2)cc1 do in these assays?
Yeast UUG start: -13; HIV Env fusion: -3; CSC inhib: -6; PABP polyA inh: 4; MT1-MMP act inh: -2; Rce1 inh: inactive; eIF4H inh: -5; MT1-MMP act inh RFP: 2

What do the screens show for `Cc1cccc(NS(=O)(=O)c2ccc3nc(-c4ccccc4)[nH]c3c2)c1C`?
HIV Env fusion: -9; CSC inhib: -15; PABP polyA inh: 6; MT1-MMP act inh: -1; Rce1 inh: inactive; eIF4H inh: -4; MT1-MMP act inh RFP: -5

What do the screens show for `O=C1CCCN1CC(O)CS(=O)(=O)c1ccc(Cl)cc1` (configuration not stated)?
Yeast UUG start: -26; HIV Env fusion: 7; CSC inhib: -10; PABP polyA inh: 4; MT1-MMP act inh: -1; Rce1 inh: inactive; eIF4H inh: 5; MT1-MMP act inh RFP: 4

What do the screens show for `CCOc1ccccc1OCCn1ncc2ccc(OC)c(OC)c2c1=O`?
Yeast UUG start: -9; CSC inhib: 9; PABP polyA inh: -7; MT1-MMP act inh: 0; Rce1 inh: inactive; eIF4H inh: -4; MT1-MMP act inh RFP: 0

What do the screens show for `O=C(CSc1ccccn1)Nc1ccc2c(c1)CCC2`?
Yeast UUG start: -2; HIV Env fusion: -22; CSC inhib: 3; MT1-MMP act inh: 4; Rce1 inh: inactive; MT1-MMP act inh RFP: 4

How did O=C(Nc1ccc(Cl)cc1)c1cc(S(=O)(=O)Nc2ccccn2)ccc1Cl do in these assays?
HIV Env fusion: 18; CSC inhib: 15; PABP polyA inh: -6; MT1-MMP act inh: -8; Rce1 inh: inactive; eIF4H inh: -8; MT1-MMP act inh RFP: -10

What do the screens show for `Cc1nnc(NC(=O)c2ccc(C)c(S(=O)(=O)N3CCOCC3)c2)s1`?
Yeast UUG start: -17; HIV Env fusion: -17; CSC inhib: -2; PABP polyA inh: 1; MT1-MMP act inh: 6; Rce1 inh: inactive; eIF4H inh: 0; MT1-MMP act inh RFP: -2

How did CCCOc1ccc(-c2c(C(=O)N/N=C/c3ccsc3)nnn2-c2nonc2N)cc1 do in these assays?
Yeast UUG start: -3; HIV Env fusion: -5; CSC inhib: -6; MT1-MMP act inh: 2; Rce1 inh: inactive; MT1-MMP act inh RFP: 4

What do the screens show for `Cc1ccc(C)c(OCCSc2nnc(C)c(=O)[nH]2)c1`?
HIV Env fusion: 4; CSC inhib: 1; PABP polyA inh: -4; MT1-MMP act inh: 0; Rce1 inh: inactive; eIF4H inh: 8; MT1-MMP act inh RFP: 3

A portion of the library; count on the stated rates, not on these rows.
